H5N1 antiviral – MDCK cell protection from H5N1 avian flu | cytopathic effect, luminescence, 72 h; stronger effect = higher value; no value below 0 was filed and about half of the inactive calls have no number; reference of the scale not given here | inhibition, % at 50 µM | 96,000 compounds, 0.07% hits; in the data active = inhibition above about 25%
Numbers without * were called inactive; i = inactive. An excerpt; rates above refer to the full screens.

SMILES	H5N1 antiviral
COc1cccc(CNn2cnnc2)c1OCc1ccccc1F	0.0
Cc1ccc(S(=O)(=O)NC2CCOC(C)(C)C2)cc1 (stereo unspecified)	0.4
CCN(CC)C(=O)CSc1nc2ncc(Br)cc2[nH]1	i
COc1ccc(CNC(=O)COC(=O)c2cc(-c3ccc(Cl)s3)nc3ccccc23)cc1	0.3
Cc1c(NC(=O)C(C)OC(=O)C(NC(=O)c2ccco2)C(C)C)c(=O)n(-c2ccccc2)n1C (stereo unspecified)	0.6
COC(=O)Cc1c(C)nc2nc[nH]n2c1=O	i
CCn1c(-c2ccc(-c3ccccc3)cc2)c[nH]c1=S	0.8
CCOC(=O)/C(C#N)=C\c1ccc(OCC(=O)Nc2ccc(C)cc2C)c(OC)c1	1.4
Cc1cc(NC(=O)Nc2cccs2)no1	4.1
CCOc1ccc(C(=O)OCc2nnc(-c3cccs3)o2)cc1OC	1.3
Cn1cc(-c2nnnn2-c2ccc(Cl)cc2)c(C(F)(F)F)n1	1.5
Cc1cc(C)n(CNc2nc(C(F)(F)F)cs2)n1	i
COc1ccc(NCCC#N)cc1	i
COc1ccc(C2C=C(c3ccccc3)Nc3nnnn32)cc1 (stereo unspecified)	0.2
CCN(CC)CCCCCOc1ccccc1OC	i
CC(C)(C)NC(=O)C(c1ccncc1)N(Cc1cccs1)C(=O)Cn1nnc(-c2cccs2)n1 (stereo unspecified)	i
COc1ccc(NC(=O)Nc2cccc3cccnc23)cc1	i
CCOC(=O)C(C)(CC)NC(=O)CSP(=S)(OCC)OCC (stereo unspecified)	0.8
CCOC(=O)N1CCN(C(=O)c2cnc(Nc3ccccc3OC)c3ccccc23)CC1	i
Cc1nn(C)c(C)c1CNC(=O)c1cnn2c1NC(c1ccccc1)CC2C(F)(F)F (stereo unspecified)	i
CS(=O)(=O)N(CC(=O)N1CCCCCC1)c1ccc(Br)cc1	i
CCOC(=O)c1c(C)n(C)c2ccc(OC)c(NC(=O)CN3CCSCC3)c12	1.8
CCCCNC(=O)C1c2ccccc2C(=O)N(c2ccc(OC)cc2)C1c1ccc(OC)cc1 (stereo unspecified)	0.2
C=CCNC(=O)C(=O)c1cccn1-c1ccsc1C(=O)OC	0.1
O=C1NC(=O)N(c2ccccc2)C(=O)/C1=C/c1ccc(Sc2ccccc2)o1	0.5

Next part.
SMILES	H5N1 antiviral
O=C(COc1ncnc2sccc12)N1CCc2ccccc2C1	i
CCc1nnc(NC(=O)CSc2nc3cc4c(cc3cc2CC)OCCO4)s1	i
COC(=O)Nc1ncc(CN2CCc3ccccc3C2)s1	0.2
CCOC(=O)C(NC(=O)Nc1ccc(F)cc1)(OCC)C(F)(F)F (stereo unspecified)	0.4
CCOC(=O)c1c(N)nn(C(=O)CC)c1-c1ccccc1	8.6
CCCOC(=O)C1C2C=CC3(CN(c4cccc(Cl)c4)C(=O)C13)O2 (stereo unspecified)	1.0
COc1ccc(OCC(=O)NC(=S)N2CCCc3ccccc32)cc1	i
C=C(C)CSc1nc2ncc(Cl)cc2[nH]1	0.6
O=C(Nc1cccnc1Cl)C1c2ccccc2Oc2ccccc21	1.8
C=C(Cl)COC(=O)[C@H]1C2C=CC(C2)C1C(=O)O (stereo partly specified)	0.1
Cc1nn(C)c(C)c1N=Cc1c(O)ccc2ccccc12	0.3
O=C1C2C3C=CC(C3)C2C(=O)N1c1ccc(Cc2ccncc2)cc1 (stereo unspecified)	0.3
CCOC(=O)N1CCC(N2Cc3cccc(C(=O)Nc4ccc(CC)cc4)c3C2=O)CC1	i
S=C(Nc1ccccc1)Nc1cc(Cl)ccc1Oc1ccccc1	13.4
O=C(Cc1ccccc1)N1CCCC(c2nc(-c3cccs3)no2)C1 (stereo unspecified)	3.9
CCc1nn(CC(=O)NCCCN(CC)Cc2ccccc2)c(=O)c2cc3sccc3n12	0.2
O=C1c2ccccc2NC(c2cccc(F)c2)N1Cc1ccco1 (stereo unspecified)	0.2
COc1ccc(NC(=S)NCCSc2ccc(Cl)cc2)c(OC)c1	1.4
CCn1c2ccccc2c2nnc(SCC(=O)NC(CC(C)C)C(=O)OC)nc21 (stereo unspecified)	i
C/C(=N\NC(=O)CC1N=C(Cc2ccccc2)NNC1=O)c1ccc(Cl)cc1Cl (stereo unspecified)	1.7
Cc1nc2nc(-c3ccco3)[nH]n2c(=O)c1C	13.5
CCn1cc(C(=O)N2CCCCC2)c(=O)c2cc(S(=O)(=O)N3CCC(C)CC3)ccc21	i
CC(C)(C)NS(=O)(=O)c1ccc(Oc2ncc(C(F)(F)F)cc2Cl)cc1	0.1
O=S(=O)(c1ccc(Br)s1)N1CCCCC1	i
Cc1cc(-c2ccccc2)nc(N(C)NC(=O)c2c(F)cccc2F)c1S(C)(=O)=O	0.2

(list continues)
SMILES	H5N1 antiviral
O=C1CCc2cc(S(=O)(=O)NC(C(=O)NCc3cccnc3)c3ccccc3)ccc2N1 (stereo unspecified)	i
O=C1N/C(=N/N=C/c2ccccc2)SC1(c1ccccc1)c1ccccc1	0.6
COC(=O)c1ccc(Cn2nc(C)c(Br)c2C)cc1	i
Nc1nc(=S)[nH]c2c1C1(CCCC1)Cc1ccccc1-2	0.1
O=C(NCc1ccco1)c1cccc(S(=O)(=O)N2CCOCC2)c1	0.6
CCC(Sc1nc(-c2ccccc2)c(C#N)c(=O)[nH]1)C(=O)Nc1nnc(C)s1 (stereo unspecified)	0.6
CCOC(=O)c1noc(C)c1C(=O)Nc1cccc(F)c1	1.3
COC(=O)c1cc(Br)c(=O)n(-c2cccc(F)c2)c1	i
Cc1ccc2c(c1)[C@@H]1CN(C)CC[C@@H]1N2S(=O)(=O)c1ccc(F)cc1	i
O=c1ccn(-c2cccc(C(F)(F)F)c2)nc1-c1ccn(-c2cccc(Cl)c2)n1	0.3
CCOC(=O)N1CCN(c2c(NCCCN3CCCC(C)C3)c(=O)c2=O)CC1 (stereo unspecified)	i
CCOC(=O)c1sc(Nc2cccc(C)c2C)nc1C	i
O=S(=O)(c1cccc2ccccc12)n1nnc2ccccc21	i
CCOc1ccc(C(=O)CN2CCN(S(=O)(=O)c3ccc(Br)cc3)CC2)cc1	0.4
CCOC(=O)Cc1cnc(NC(=O)Cn2nnc(-c3ccc(OCC)cc3)n2)s1	i
O=c1c2ccccc2nc(-c2cccs2)n1-c1ccccc1	1.8
O=S(=O)(c1ccc(S(=O)(=O)N2CCCC2)cc1)N1CCCCCC1	0.1
CN(C(=O)c1ccco1)C1(c2ccccc2Cl)CCCCC1=O (stereo unspecified)	i
Cc1cc(C)n(-c2nc3ccccc3n3cnnc23)n1	0.5
Cc1ccc(S(=O)(=O)n2ccnc2)cc1C	0.5
N#Cc1nc(-c2ccc(OCc3ccccc3)cc2)oc1NCCN1CCOCC1	0.0
Cc1nn2cc(-c3ccccc3)nc2[nH]c1=O	0.3
COc1ccc(Cn2nnnc2C(c2ccccn2)N2CCN(c3cc(Cl)ccc3C)CC2)cc1 (stereo unspecified)	1.3
C/C(CC(=O)Nc1ccc(Cl)cc1Cl)=N\NC(N)=S	i
Cc1c(N2C(=O)c3cccc4cccc(c34)C2=O)c(=O)n(-c2ccccc2)n1C	3.2

Gathered by group: the compounds so far with an NH in an aromatic ring
SMILES	H5N1 antiviral
CCN(CC)C(=O)CSc1nc2ncc(Br)cc2[nH]1	i
COC(=O)Cc1c(C)nc2nc[nH]n2c1=O	i
CCn1c(-c2ccc(-c3ccccc3)cc2)c[nH]c1=S	0.8
C=C(C)CSc1nc2ncc(Cl)cc2[nH]1	0.6
Cc1nc2nc(-c3ccco3)[nH]n2c(=O)c1C	13.5
Nc1nc(=S)[nH]c2c1C1(CCCC1)Cc1ccccc1-2	0.1
CCC(Sc1nc(-c2ccccc2)c(C#N)c(=O)[nH]1)C(=O)Nc1nnc(C)s1 (stereo unspecified)	0.6
Cc1nn2cc(-c3ccccc3)nc2[nH]c1=O	0.3

Following part:
SMILES	H5N1 antiviral
COc1ccc(C2CC(C(F)(F)F)n3ncc(C(=O)O)c3N2)cc1OC (stereo unspecified)	0.3
CCC(Oc1ccccc1)C(=O)N1CCN(CC)CC1 (stereo unspecified)	0.2
CCOC(=O)c1ccc(NC(=O)C2(c3ccc(OC)cc3)CCCC2)cc1	4.0
Nc1nc(C2CC2)c(Sc2sc(N)nc2C2CC2)s1	i
CC(C)Cn1c(-c2ccc(Cl)cc2)cnc1SCC(=O)N1CCOCC1	i
Cc1ccc(OCC(=O)Nc2ccc(O)c(-c3nc4ccccc4o3)c2)cc1	0.3
CCCc1[nH]nc2c1C(c1cccnc1)C(C#N)=C(N)O2 (stereo unspecified)	i
CC(C)CC1NC(=O)N(CC(=O)N2CCN(S(=O)(=O)c3ccccc3)CC2)C1=O (stereo unspecified)	0.2
CCCNC(=O)Nc1ccc2c(c1)nc(C)n2C	1.2
CC(=O)Nc1nc(=O)c2ccccc2s1	0.2
CCCCCCCC(=O)NC(Oc1ccccc1[N+](=O)[O-])C(Cl)(Cl)Cl (stereo unspecified)	0.7
CCCn1c(SCc2nc(-c3cccs3)no2)nnc1-c1ccncc1	0.4
COC(=O)c1ccccc1NC(=O)C1CCN(S(=O)(=O)c2cc(C)ccc2OC)CC1	i
COCCn1c(=S)[nH]c2cc(C(=O)NC(C)C)ccc2c1=O	i
O=C(O)CCC(=O)Nc1ccc(N2CCCCCC2)cc1	2.3
COCCn1c(SCC(=O)Nc2nnc(C)s2)nnc1-c1cc2ccccc2cc1O	i
Cn1c(=O)[nH]c(=O)c2c1nc(CN1CCOCC1)n2CCCc1ccccc1	3.9
CCN1C(=O)/C(=C/c2cc(C)n(C)c2C)SC1=Nc1ccc(OC)cc1	0.0
O=S(=O)(NCCN1CCCC1)c1cccc2cccnc12	1.3
COc1cccc(CN(CC2CCCO2)S(=O)(=O)c2ccc(S(=O)(=O)NCC3CCCO3)cc2)c1OC (stereo unspecified)	0.4
Nc1nc(SCc2ccccc2)ns1	i
COc1ccc(C(=O)OC(C(=O)c2ccc(C)cc2)c2ccccc2)cc1 (stereo unspecified)	i
CCCNS(=O)(=O)c1ccc(CCC(=O)NCc2ccc3c(c2)OCO3)cc1	0.0
Cc1cc(N)ccc1NC(=O)c1ccccc1	i
O=C(CCCCCn1c(=S)[nH]c2cc3c(cc2c1=O)OCO3)N1CCN(C2CCCCC2)CC1	i

Continuation:
SMILES	H5N1 antiviral
CCOc1ccc(Cn2c(O)cc(=O)[nH]c2=O)cc1	i
C=CCOC(=O)C1=C(C)NC(SCC(=O)N(CC)CC)=C(C#N)C1c1ccccc1 (stereo unspecified)	1.2
O=C(Nc1ccccc1)Nc1nccs1	i
COCCCNC(=O)CN1C(=O)c2ccccc2C1=O	i
CC(C)OC(=O)CSc1nc2ncc(Cl)cc2[nH]1	i
CCc1c(C)nc2ncnn2c1N1CCCC(C(=O)NCc2ccc3c(c2)OCO3)C1 (stereo unspecified)	i
CCOC(=O)c1sc(/N=C/c2c(C)[nH]n(-c3ccccc3)c2=O)c(C#N)c1C	i
COc1ccc(NC(=O)C(=O)NCCN2CCN(C(=O)C(c3ccccc3)c3ccccc3)CC2)cc1	i
CN=C1SC(CC(=O)Nc2cccc(C(F)(F)F)c2)C(=O)N1C (stereo unspecified)	i
Cc1csc2nc(CNC(=O)CCC(=O)O)cn12	i
CC/C(=N\NC(=O)c1ccc2c(c1)OCO2)C12CC3CC(CC(C3)C1)C2	i
Cc1ccc(NC(=O)CCN2C(=O)c3ccncc3C2=O)cc1	2.1
COc1ccc(OCCSc2nnc(CCNC(=O)c3ccc(OC)cc3)n2C)cc1	0.1
CCc1ccc(S(=O)(=O)NCc2cn3ccccc3n2)s1	2.1
COc1cccc(OCC(=O)N(Cc2nc(-c3ccc(Cl)cc3)no2)C(C)C)c1	i
COc1ccc(S(=O)(=O)N(CC(=O)N2CCCC2)Cc2ccccc2)cc1	1.8
O=S(=O)(NCc1ccco1)c1cccc(S(=O)(=O)N2CCOCC2)c1	0.2
COc1cc2cc(C(c3nnnn3C3CCCC3)N3CCc4ccccc43)c(=O)[nH]c2cc1OC (stereo unspecified)	i
CCC(C)N(CC(=O)NCc1ccc(OC)cc1)C(=O)c1csnn1 (stereo unspecified)	1.0
CCC(Sc1nc2c(c(=O)n1CC)SC(C)C2)C(=O)OC (stereo unspecified)	0.7
N#Cc1ccc2ccn(CC(=O)NC3CCCCCC3)c2c1	0.6
Cc1ccc(NC(=S)N2CCC(c3nc4ccccc4s3)CC2)cc1C	i
Cc1cccc(CN2C(=O)N/C(=C/c3cc(C)n(-c4ccccn4)c3C)C2=O)c1	i
CC(C)(C)NC(=O)NC(=O)COC(=O)c1ccco1	0.6
Cc1cccc(OCC(=O)N2CCN(C(=O)c3cccs3)CC2)c1	i

Filtered by structure: those above with a tert-butyl group (three)
SMILES	H5N1 antiviral
CC(C)(C)NC(=O)C(c1ccncc1)N(Cc1cccs1)C(=O)Cn1nnc(-c2cccs2)n1 (stereo unspecified)	i
CC(C)(C)NS(=O)(=O)c1ccc(Oc2ncc(C(F)(F)F)cc2Cl)cc1	0.1
CC(C)(C)NC(=O)NC(=O)COC(=O)c1ccco1	0.6

(continued)
SMILES	H5N1 antiviral
C(#Cc1ccc(C#CCN2CCOCC2)cc1)CN1CCOCC1	1.2
Cc1ccc(S(=O)(=O)NP(=O)(Oc2ccccc2)Oc2ccccc2)cc1	0.8
Cc1ccc(S(=O)(=O)N(c2ccccc2)C2CCS(=O)(=O)C2)cc1 (stereo unspecified)	0.8
CCOC(=O)CCCNS(=O)(=O)c1c(C)ccc2nsnc12	i
CCOC(=O)Nc1cccc(OCC(=O)Nc2ccccc2OC)c1	i
CCOc1ccc(NCc2cc3c(C(C)(C)C)nn(-c4ccccc4)c3[nH]c2=O)cc1	1.1
N=c1oc2ccccc2cc1C(=O)N/N=C/c1ccccc1	0.8
CCC(C)SCc1nc2ccccc2[nH]1 (stereo unspecified)	1.1
